Compound activity: PubChem BioAssay, Broad Institute
LANA-H2A inh = blocks KSHV LANA binding to histone H2A/H2B | AID 2629 | cell-free LANA-H2A/H2B peptide, fluorescence polarization | Q9QR71 | hit rate 0.6% among 320,000 | inhibition, % (concentration not given with the values); in the data active = inhibition mostly above about 10%, no sharp cut-off; inactive = mostly below about 6.7%;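 note: stock transfer was 7.5 nL into about 10 µL; 0% = median of vehicle wells and 100% = median of positive control wells; one replicate is shown; the record names a cut of 25% in any replicate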
A1 inh = inhibitors of the anti-apoptotic protein A1, read as caspase activation | MEF A1-2A-BIM cells, Caspase-Glo 3/7 luminescence, 3 h; percent of clofoctol response, vehicle zero | hit rate 0.066% among 330,000 | caspase activation, % (concentration not given with the values);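 active = over half of replicate activation scores above 10%, or exactly half above 10 with the replicate mean above 10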;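 note: wells of about 30 µL received 50 nL stock; many hits fall short of the cut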
MLL AF4-AF9 inh = blocks AF4 peptide binding to human AF9. hit rate 0.47% among 350,000. AID 651704. AlphaScreen, biotin-AF4 peptide binding to FLAG-AF9. P42568. inhibition, % at 10 µM;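 active = every replicate reaching a set inhibition limit, whatever the replicate mean, cut at about 25% in these data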;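 note: 0% = plate neutral control median and 100% = total signal loss; the record names both 10 and 1 µM as test concentration; the first replicate is given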
Target sequence (P42568 whole entry, looked up): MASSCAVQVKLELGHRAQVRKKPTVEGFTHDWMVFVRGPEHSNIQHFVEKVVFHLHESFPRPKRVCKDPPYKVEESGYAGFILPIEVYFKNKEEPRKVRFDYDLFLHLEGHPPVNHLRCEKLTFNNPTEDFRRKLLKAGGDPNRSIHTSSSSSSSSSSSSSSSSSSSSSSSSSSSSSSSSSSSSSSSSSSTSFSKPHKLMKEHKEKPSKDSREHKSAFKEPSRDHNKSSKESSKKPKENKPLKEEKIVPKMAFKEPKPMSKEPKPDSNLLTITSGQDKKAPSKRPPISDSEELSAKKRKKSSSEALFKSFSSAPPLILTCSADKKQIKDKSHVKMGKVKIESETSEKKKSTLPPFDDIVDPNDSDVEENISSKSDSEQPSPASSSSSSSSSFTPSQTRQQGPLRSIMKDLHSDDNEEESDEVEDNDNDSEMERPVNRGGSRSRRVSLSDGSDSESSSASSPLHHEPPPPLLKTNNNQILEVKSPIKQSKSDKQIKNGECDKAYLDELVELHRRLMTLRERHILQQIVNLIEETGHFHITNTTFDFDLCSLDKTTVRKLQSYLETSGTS
Beta cell apopt = blocks beta cell apoptosis; protection from apoptosis, % (test concentration not listed); hit rate 0.8% among 300,000; AID 435005; INS-1E cytokine-induced death, ATP luminescence, 48 h; percent of positive-control rescue, neutral wells zero;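 active = all replicates at 75% or more, or half of them and the mean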;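 note: 0% = cytokine-treated negative control wells and 100% = positive control rescue; higher means more ATP so stronger rescue from cytokine killing; wells of about 40 µL received 100 nL stock; the first replicate is given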
* = called active by the depositor; . = not tested or not shown; & = joins results of further samples.

SMILES | LANA-H2A inh | A1 inh | MLL AF4-AF9 inh | Beta cell apopt
NC(N)=Nc1ccc2[nH]c3c(c2c1)C[C@@]1(O)[C@H]2Cc4ccc(O)c5c4[C@@]1(CCN2CC1CC1)[C@H]3O5 | 1.0 | -1.2 | . | 24.1
Cc1ccccc1N | -1.1 | 0.6 | . | -3.0
COC(=O)C1=C(c2ccc(F)cc2OCc2ccccc2)C[C@@H]2CC[C@H]1N2C(=O)NCc1ccccc1 | -1.6 | -2.6 | . | 4.6
COC(=O)C1=C(c2ccc(Cl)c(C(F)(F)F)c2)C[C@@H]2CC[C@H]1N2C(=O)NCCOc1ccccc1Cl | -2.3 | 0.4 | . | 2.0
O=[N+]([O-])c1cc(Cl)c(Cl)cc1Cl | 0.2 | 0.1 | . | 0.8
Brc1ccc(Oc2cc(Br)c(Br)cc2Br)c(Br)c1 | 3.1 | -0.3 | . | 3.2
Cc1cc(O)c2c(c1)C(=O)C13C(=C2O)C(=O)[C@H]2[C@@H](O)[C@@H]1[C@H]1[C@H](O)[C@@H]3C(=O)C3=C(O)c4c(O)cc(C)cc4C(=O)C312 (stereo not given in full) | -2.9 | -0.5 | . | 105.6*
Oc1ccc(Cl)c(Cl)c1 | -1.2 | -0.3 | . | -8.7
COC(=O)C1=C(c2ccc(Cl)c(C(F)(F)F)c2)C[C@@H]2CC[C@H]1N2C | -2.0 | 0.7 | . | -0.2
COC(=O)C1=C(c2ccc(C(C)=O)cc2)C[C@@H]2CC[C@H]1N2C(=O)N1CCCCC1 | -5.1 | 0.4 | . | -3.6
Nc1cc(Cl)cc(Cl)c1 | -2.5 | -0.9 | . | -5.0
CCCCCCCCn1sccc1=O | -43.2 | 1.8 | . | 2.0
Nc1c(Br)cc([N+](=O)[O-])cc1[N+](=O)[O-] | 25.6* | 1.7 | . | 1.8
Nc1cc(Cl)cc(C(=O)O)c1Cl | 38.0* | 0.8 | . | -6.5
COC(=O)C1=C(c2ccc(F)cc2F)C[C@@H]2CC[C@H]1N2C(=O)NC(C)C | -0.6 | 0.7 | . | -6.2
COC(=O)C1=C(c2ccc(OCc3ccccc3)cc2)C[C@@H]2CC[C@H]1N2C(=O)NC1CCN(Cc2ccccc2)CC1 | 5.1 | 0.0 | . | 78.1*
CCN(CC)c1ccccc1 | -6.3 | 0.0 | . | 3.0
CCCNC(=O)N1[C@H]2CC[C@@H]1C(C(=O)OC)=C(c1ccc(F)cc1OCc1ccccc1)C2 | -1.8 | -0.2 | . | -1.8
COC(=O)C1=C(c2ccc(OC)c(OC)c2)C[C@@H]2CC[C@H]1N2C(=O)NCc1cccc2ccccc12 | 21.2 | -0.3 | . | -0.9
Oc1cc(O)cc(/C=C/c2ccc(O)cc2O)c1 | -3.8 | -10.6 | . | 2.1
COC(=O)C1=C(c2ccc(F)cc2OCc2ccccc2)C[C@@H]2CC[C@H]1N2C(=O)N1CCC(O)CC1 | -1.7 | 0.6 | . | -3.2
CCCCOC(=O)c1ccccc1C(=O)OCc1ccccc1 | -0.5 | -0.2 | . | -1.9
CCOP(=O)(OCC)OCC | -247.0 | -0.3 | . | 6.6
COC(=O)C1=C(c2ccc3ccccc3c2)C[C@@H]2CC[C@H]1N2C(=O)N1CCCC1 | -5.6 | 0.9 | . | -9.0
Nc1ccccc1C(=O)OCCc1ccccc1 | -5.6 | 0.0 | . | 0.6

Already shown: an excerpt of the list.
SMILES | LANA-H2A inh | A1 inh | MLL AF4-AF9 inh | Beta cell apopt
NC(N)=Nc1ccc2[nH]c3c(c2c1)C[C@@]1(O)[C@H]2Cc4ccc(O)c5c4[C@@]1(CCN2CC1CC1)[C@H]3O5 | 1.0 | -1.2 | . | 24.1
Cc1ccccc1N | -1.1 | 0.6 | . | -3.0
COC(=O)C1=C(c2ccc(F)cc2OCc2ccccc2)C[C@@H]2CC[C@H]1N2C(=O)NCc1ccccc1 | -1.6 | -2.6 | . | 4.6
COC(=O)C1=C(c2ccc(Cl)c(C(F)(F)F)c2)C[C@@H]2CC[C@H]1N2C(=O)NCCOc1ccccc1Cl | -2.3 | 0.4 | . | 2.0
O=[N+]([O-])c1cc(Cl)c(Cl)cc1Cl | 0.2 | 0.1 | . | 0.8
Brc1ccc(Oc2cc(Br)c(Br)cc2Br)c(Br)c1 | 3.1 | -0.3 | . | 3.2
Cc1cc(O)c2c(c1)C(=O)C13C(=C2O)C(=O)[C@H]2[C@@H](O)[C@@H]1[C@H]1[C@H](O)[C@@H]3C(=O)C3=C(O)c4c(O)cc(C)cc4C(=O)C312 (stereo not given in full) | -2.9 | -0.5 | . | 105.6*
Oc1ccc(Cl)c(Cl)c1 | -1.2 | -0.3 | . | -8.7
COC(=O)C1=C(c2ccc(Cl)c(C(F)(F)F)c2)C[C@@H]2CC[C@H]1N2C | -2.0 | 0.7 | . | -0.2
COC(=O)C1=C(c2ccc(C(C)=O)cc2)C[C@@H]2CC[C@H]1N2C(=O)N1CCCCC1 | -5.1 | 0.4 | . | -3.6
Nc1cc(Cl)cc(Cl)c1 | -2.5 | -0.9 | . | -5.0

Other compounds
SMILES | LANA-H2A inh | A1 inh | MLL AF4-AF9 inh | Beta cell apopt
C1CCC(NC2CCCCC2)CC1 | 141.5* | 0.1 | . | 0.4
C=CCOC(=O)c1ccccc1N | 7.1 | 0.2 | . | -7.3
CN1CCc2cc3c(cc2C1)OCO3 | . | . | -8.8 | .
Cc1noc(C)c1COc1ccc(C(=O)NCC2(N(C)C)CCCCC2)cc1 | . | . | 0.7 | .
C[C@H]1CN([C@@H](C)CO)C(=O)CCCn2cc(nn2)CO[C@H]1CN(C)C(=O)Oc1ccc2ccccc2c1 | . | . | -1.8 | .
O=c1[nH]c2ccccc2n1C1CCN(C(c2cccs2)c2nnnn2Cc2ccccc2)CC1 (stereo not given) | . | . | -0.7 | .
Cc1cccc(C)c1-n1nnnc1C(c1cccs1)N1CCC(n2c(=O)[nH]c3ccccc32)CC1 (stereo not given) | . | . | 0.5 | .
COC(=O)[C@@H]1[C@@H](CO)[C@@H]2Cn3c(ccc(-c4ccccc4F)c3=O)[C@H]1N2Cc1ccncc1 | . | . | 2.1 | .
C=CCC1(Cc2ccsc2)C(=O)NC(=O)NC1=O | . | . | -2.9 | .
C[C@@H]1CN([C@@H](C)CO)C(=O)CCCn2cc(nn2)CO[C@@H]1CN(C)C(=O)Oc1ccc2ccccc2c1 | . | . | 1.5 | .
COc1ccc(-c2ccc([C@H]3[C@H]4CN(C(=O)Cc5ccncc5)CCCCN4[C@H]3CO)cc2)cc1 | . | . | -1.4 | .
O=C(Cc1ccccn1)N1CCCCN2[C@H](CO)[C@H](c3ccc(-c4ccccc4)cc3)[C@H]2C1 | . | . | 1.6 | .
O=C(Cc1ccccn1)N1CC2(C1)[C@@H](c1ccccc1)[C@@H](CO)N2Cc1ccccn1 | . | . | 1.9 | .
CC[C@H]1CN2CCC1C[C@@H]2[C@H](O)c1ccnc2ccc(OC)cc12 (stereo not given in full) | . | . | 2.2 | .
COc1ccc(-n2nnnc2C(C2CC2)N2CCC3(CC2)C(=O)NCN3c2ccccc2)cc1 (stereo not given) | . | . | -0.5 | .
COC(=O)[C@@H]1[C@@H](CO)[C@@H]2Cn3c(ccc(-c4ccccc4)c3=O)[C@H]1N2S(=O)(=O)c1ccccc1C | . | . | 1.8 | .
CCCN1[C@@H]2c3ccc(-c4cccc(C(=O)N(C)C)c4)c(=O)n3C[C@H]1[C@H](CO)[C@H]2C(=O)OC | . | . | -1.5 | .
C[C@H](CO)N1C[C@H](C)[C@H](CN(C)C(=O)Oc2ccc3ccccc3c2)OCc2cn(nn2)CCCC1=O | . | . | -6.9 | .
C[C@H](CO)N1C[C@H](C)[C@@H](CN(C)C(=O)Oc2cccc3ccccc23)OCc2cnnn2CCCC1=O | . | . | -1.2 | .
CC(C)(C)C(=O)N1Cc2cc(N3CCCCC3)ccc2-n2nncc2C1 | . | . | 0.3 | .
O=C(Cc1ccccn1)N1CCCCN2[C@H](CO)[C@H](c3ccc(-c4ccc(F)cc4)cc3)[C@H]2C1 | . | . | 0.6 | .
COC(=O)[C@H]1[C@H](CO)[C@H]2Cn3c(ccc(C4=CCCC4)c3=O)[C@@H]1N2CC1CCCC1 | . | . | -0.4 | .
O=C(Cc1ccccn1)N1CCCCN2[C@@H](CO)[C@H](c3ccc(C#Cc4ccccc4)cc3)[C@@H]2C1 | . | . | -6.0 | .
CCOC(=O)[C@]12Cc3ccc4ccccc4c3[C@H]1N(Cc1ccccc1)C(=O)c1ccccc12 | . | . | -3.5 | .
O=C(CCCc1ccc(N(CCCl)CCCl)cc1)NCc1ccccc1 | . | . | -0.9 | .
SMILES | LANA-H2A inh | A1 inh | MLL AF4-AF9 inh | Beta cell apopt
CC(=O)NCC1=C(c2cccc3ccccc23)C[C@@H]2CC[C@H]1N2Cc1ccco1 | . | . | 2.4 | .
COc1ccc(C(c2nnnn2-c2ccc(OC)cc2)N2CCC(n3c(=O)[nH]c4ccccc43)CC2)cc1 (stereo not given) | . | . | 0.6 | .
CC=Cc1ccc2n(c1=O)C[C@H]1[C@H](CO)[C@@H](C(=O)OC)[C@@H]2N1C(=O)CC1CC1 (mixture of isomers) | . | . | 1.9 | .
COc1ccc(-n2nnnc2C(c2ccccc2OC(F)(F)F)N2CCC3(CC2)C(=O)NCN3c2ccccc2)cc1 (stereo not given) | . | . | 1.8 | .
O=C(Cc1ccncc1)N1CCCCN2[C@@H](CO)[C@H](c3ccc(C#CC4(O)CCCC4)cc3)[C@@H]2C1 | . | . | -2.2 | .
O=C(NCC1=C(c2cccc3ccccc23)C[C@@H]2CC[C@H]1N2Cc1ccco1)c1ccc([N+](=O)[O-])cc1 | . | . | 25.0* | .
COC1=C[C@@H]2[C@@H]3Cc4ccc(OC)c(O)c4[C@]2(CCN3C)CC1=O | . | . | -1.0 | .
CCCN1[C@@H]2Cn3c(ccc(-c4ccc(OC)cc4)c3=O)[C@H]1[C@@H](C(=O)OC)[C@@H]2CO | . | . | -0.6 | .
COc1ccc(OC(=O)N(C)C[C@@H]2OCc3ccccc3-c3c(n(C)c4ccccc34)C(=O)N([C@@H](C)CO)C[C@H]2C)cc1 | . | . | 2.7 | .
CCCNC(=O)N1[C@@H]2c3ccc(-c4ccccc4OC)c(=O)n3C[C@H]1[C@H](CO)[C@H]2C(=O)O | . | . | -1.7 | .
O=C(Cc1ccccc1)N1CCCCN2[C@@H](CO)[C@H](c3ccc(-c4ccccc4)cc3)[C@@H]2C1 | . | . | 4.2 | .
NC(=O)c1cc([N+](=O)[O-])cc([N+](=O)[O-])c1 | . | . | -0.9 | .
COC(=O)[C@@H]1[C@@H](CO)[C@@H]2Cn3c(ccc(-c4ccccc4F)c3=O)[C@H]1N2CC1CCCC1 | . | . | 1.4 | .
O=C(Cc1ccncc1)N1CCCCN2[C@H](CO)[C@@H](c3ccc(C#CC4(O)CCCC4)cc3)[C@@H]2C1 | . | . | -3.1 | .
CN1CCN(C(=O)COc2ccc(S(=O)(=O)Nc3ccc(Cl)cc3)cc2)CC1 | . | . | -4.3 | .
O=C(C1CC1)N1C[C@@H]2N[C@H](C1)[C@@H]2c1ccc(-c2ccncc2)cc1 | . | . | -9.2 | .
CC(C)C[C@@H]1COc2cc(N3CCN(C)CC3)ccc2S(=O)(=O)N1 | . | . | -1.1 | .
CSCCC(c1nnnn1C1CCCC1)N1CCC(n2c(=O)[nH]c3ccccc32)CC1 (stereo not given) | . | . | 7.6 | .
O=C1NCN(c2ccccc2)C12CCN(C(c1cc3ccccc3o1)c1nnnn1C1CCCCC1)CC2 (stereo not given) | . | . | 3.9 | .
Nc1ncnc2c1ncn2[C@@H]1O[C@H](COP(=O)(O)CP(=O)(O)O)[C@@H](O)[C@H]1O | . | . | 0.1 | .
CN(C)c1ccccc1 | . | . | -2.5 | .
CC12CC1(C)C(=O)N(c1cc(Cl)cc(Cl)c1)C2=O (stereo not given) | . | . | 2.5 | .
COP(=S)(OC)Oc1ccc(Sc2ccc(OP(=S)(OC)OC)cc2)cc1 | . | . | -4.8 | .
C[C@@H]1CN([C@H](C)CO)C(=O)CCCn2nncc2CO[C@H]1CN(C)C(=O)Oc1ccccc1 | . | . | -3.8&0.1&-1.5 | .
CCOP(=S)(OCC)Oc1ccc2c(C)c(Cl)c(=O)oc2c1 | . | . | -4.7 | .
COC(=O)[C@@H]1[C@@H](CO)[C@@H]2Cn3c(ccc(C4=CCCC4)c3=O)[C@H]1N2CC1CCCC1 | . | . | -14.2 | .
c1ccc(N2Cc3ccccc3-n3nncc3C2)nc1 | . | . | -3.4 | .
CC(C)(C)N1CC(C(=O)c2ccccc2)C1c1ccccc1 (stereo not given) | . | . | 1.5 | .
O=C(Cc1ccccn1)N1CC2(C1)[C@H](c1ccccc1)[C@H](CO)N2Cc1ccccn1 | . | . | 2.7 | .
CC(C)C(O)(C(=O)OCC1=CCN2CCC(O)C12)C(C)O (stereo not given) | . | . | 2.3 | .

Not all compounds are listed. The share of hits here may be higher or lower than overall.
